# CtBP-E1A blk = inhibitors of CtBP/E1A interaction; AlphaScreen GST-E1A/His-CtBP binding, 1536-well; active compounds read low; control for the full effect not named in the record; activity change, % (test concentration not listed); hit rate 0.49% among 340,000; in the data active means activity change below about -65%; inconclusive means about -30% to -65%; inactive means above about -30%; note: % is set by controls: 0 for no effect and ±100 for the full control effect
#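 Protein mix (5X: 125 nM each GST-E1A, His-CtBP) was incubated with pinned compound 2 h at 37 deg C in dark, in 50 mM Tris pH 8.0 buffer with 300 mM NaCl. Glutathione donor and nickel acceptor beads followed; AlphaScreen signal read after 1 h.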
# TRPML1 blocker = blocks the human TRPML1 channel; Q9GZU1; TRPML1-inducible cells, Ca2+ dye fluorescence, FDSS; active compounds read low; inhibition of EC80 agonist-evoked calcium signal; activity change, negative = inhibition, % (concentration not given with the values); hit rate 0.02% among 390,000; in the data active means activity change below about -50%; inconclusive means about -30% to -50%; inactive means above about -30%;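 note: stimulus is agonist 54-4 at its EC80 concentration; % is set by controls: 0 for no effect and ±100 for the full control effect; the text of the record puts the active cut at -80%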
# Target sequence (Q9GZU1 whole entry, looked up): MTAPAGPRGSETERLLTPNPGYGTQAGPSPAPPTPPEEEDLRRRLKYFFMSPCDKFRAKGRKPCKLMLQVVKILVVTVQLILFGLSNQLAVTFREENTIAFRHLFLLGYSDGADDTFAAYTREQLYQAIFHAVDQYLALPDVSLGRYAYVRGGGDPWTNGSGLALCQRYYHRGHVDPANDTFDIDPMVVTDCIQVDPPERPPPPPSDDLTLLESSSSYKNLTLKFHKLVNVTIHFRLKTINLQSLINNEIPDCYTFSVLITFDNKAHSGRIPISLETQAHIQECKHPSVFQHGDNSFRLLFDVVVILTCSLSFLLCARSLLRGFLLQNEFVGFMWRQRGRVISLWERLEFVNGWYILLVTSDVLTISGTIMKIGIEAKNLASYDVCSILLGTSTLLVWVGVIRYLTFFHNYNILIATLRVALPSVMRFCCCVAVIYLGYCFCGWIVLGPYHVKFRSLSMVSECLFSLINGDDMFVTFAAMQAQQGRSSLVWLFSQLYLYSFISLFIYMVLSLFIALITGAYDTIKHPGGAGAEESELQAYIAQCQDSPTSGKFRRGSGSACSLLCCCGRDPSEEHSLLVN
#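 Tet-induced TRPML1-DL cells loaded with Ca8 no-wash calcium dye were read kinetically on FDSS. Compound addition was followed by EC80 agonist 54-4 (4 uM final); inhibition was read over 110 s.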
# D2 potentiator = positive allosteric modulators of human D2 dopamine receptor; P14416; DiscoveRx D2 beta-arrestin cells, luminescence, 90 min; 100% = 57 uM dopamine signal; potentiation, % (no concentration beside the values); hit rate 0.23% among 360,000; AID 624464; active = potentiation of 50% or more; inconclusive = 30% to 50%; inactive = 30% or less;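 note: compound concentration not given in the record; tested on top of an EC20 dose of dopamine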
# Target sequence (P14416 whole entry, looked up): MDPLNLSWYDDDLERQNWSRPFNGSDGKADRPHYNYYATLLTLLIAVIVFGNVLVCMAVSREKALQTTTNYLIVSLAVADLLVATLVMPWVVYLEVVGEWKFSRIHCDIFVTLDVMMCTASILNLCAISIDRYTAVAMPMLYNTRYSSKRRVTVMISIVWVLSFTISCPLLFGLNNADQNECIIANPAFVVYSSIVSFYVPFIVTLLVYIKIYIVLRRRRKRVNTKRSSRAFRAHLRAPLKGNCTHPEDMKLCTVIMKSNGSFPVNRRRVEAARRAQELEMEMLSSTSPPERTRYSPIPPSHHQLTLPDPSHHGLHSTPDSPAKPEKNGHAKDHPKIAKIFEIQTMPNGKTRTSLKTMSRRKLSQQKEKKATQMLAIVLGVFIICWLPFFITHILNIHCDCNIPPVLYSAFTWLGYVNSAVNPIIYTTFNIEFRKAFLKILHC
#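 PathHunter D2 cells, attached overnight at 37 deg C, received compound in DMSO plus dopamine at EC20 (50 nM final) for 90 min at 37 deg C. Beta-arrestin recruitment was read as luminescence after 1 h with detection reagent at ambient temperature.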
# TRPML1 agonist = agonists of human TRPML1 channel; Q9GZU1; TRPML1-expressing cells, Ca2+ dye fluorescence, FDSS; host cell line not named in the record; reference of the full effect not given here; activation, % (test concentration not listed); hit rate 0.12% among 410,000; in the data active = activation above about 50%; inconclusive = about 30% to 50%; inactive = below about 30%; note: 0% is about no effect; the text of the record puts the active cut at 80%
#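 Agonist activity was taken from a 110 s kinetic Ca2+ dye read on the FDSS after pinning compounds onto TRPML1-DL cells. The cells were seeded at 1,500/well with Tet inducer, incubated about 16 h, then dye-loaded at room temperature.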
# TRPV1 PAM = potentiators of human vanilloid receptor 1 (TRPV1) | Q8NER1 | TRPV1-expressing cells, Fluo-8 calcium influx, capsaicin EC20 potentiation; host cell line not named in the record; control for the full effect not named in the record | potentiation, % at 8.33 µM | hit rate 0.02% among 320,000 | AID 540277; active means potentiation above 80%; inconclusive means 30% to 80%; inactive means below 30%; note: 0% is about no effect
#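 TRPV1-expressing cells were cultured overnight at 35.5C and loaded with Fluo-8 calcium dye for 40 to 90 min at room temperature. After a 10 s baseline, compound was added and calcium influx was read kinetically for 3 min (ex 480/em 520 nm).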
# Six1-Eya2 blk = Six1/Eya2 interaction inhibition; Q15475+O00167; AlphaScreen GST-Six1/His-Eya2 binding, biochemical; active compounds read low; control for the full effect not named in the record; activity change, % (test concentration not listed); hit rate 0.56% among 360,000; in the data active = activity change below about -65%; inconclusive = about -30% to -65%; inactive = above about -30%; note: % is set by controls: 0 for no effect and ±100 for the full control effect
#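 GST-Six1 + His-Eya2 (5X stock: 250/500 nM); Tris pH 8.0, 300 mM NaCl, 0.05% BSA, 0.02% Tween 20; GSH donor/Ni acceptor beads; 1 h 37 °C dark; AlphaScreen readout.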
# An asterisk follows results filed as active; ? = inconclusive; . = not tested or not shown; & = joins results of further samples.
SMILES,CtBP-E1A blk,TRPML1 blocker,D2 potentiator,TRPML1 agonist,TRPV1 PAM,Six1-Eya2 blk
CN(C)CCNC(=O)Nc1ccc([N+](=O)[O-])cc1,8,-5,-3,1.2,-15,-2
O=C(O)C(c1ccccc1)N1CCCCC1 (centres undefined),5,?,-1,-0.3,-1,-1
CCOC(=O)COc1ccccc1-c1ccno1,13,-1,0,-0.9,3,4
CN(C)c1nc(N)c2nccnc2n1,-1,0,-16,-0.4,.,5
Cc1ccc(NC(=O)CSc2nnc(COc3ccc(C#N)cc3)n2-c2ccccc2)cc1C,-2,26,-16,3.1,-2,2
CCOCCCNC(=S)N(CCN(CC)CC)Cc1cc2cc3c(cc2[nH]c1=O)OCCO3,-20,-16,-5,1.1,11,-15
O=C(Nc1cccc(S(=O)(=O)NCc2ccco2)c1)c1cc(-c2ccccc2)nc2ccccc12,-3,-20,7,0.9,-1,-9
Cn1nc(-c2ccccc2F)c2cc(C(=O)Nc3ccc4c(c3)OCCO4)sc21,-18,1,-14,0.0,21,-10
CCc1ccc(C2(C)SC(NC(C)=O)=NN2C(C)=O)cc1 (centres undefined),2,-9,0,2.5,10,1
COC(=O)c1ccc(NC(C(=O)OC)C(C)C)c([N+](=O)[O-])c1 (centres undefined),-7,32,4,2.6,-16,-9
O=C(COc1ccccc1Cl)N(Cc1cccs1)C1CCS(=O)(=O)C1 (centres undefined),24,0,-8,-0.4,16,4
Cc1ccc(C(=O)NNC(=S)NC(=O)c2ccccc2)cc1,-24,-12,-27,-0.2,.,-13
O=C(CCC(=O)Nc1ccccc1Cl)NNC(=O)c1ccco1,10,4,1,1.1,-1,5
CC(C)[C@H](NC(=O)c1ccccc1)C(=O)O,1,-29,-3,0.4,-7,15
CC(=O)NC(Cc1c[nH]c2ccccc12)C(=O)NCCc1ccccc1 (centres undefined),.,16,-31,-0.3,0,10
COc1ccc(NC(=O)COC(=O)Cn2cnc3ccccc3c2=O)cc1OC,0,-20,-6,-0.8,-3,4
Cc1cc(C)c(C#N)c(SCC2COc3ccccc3O2)n1 (centres undefined),35,-2,-8,0.1,7,34
O=S(=O)(Nc1ncnc2sc3c(c12)CCC3)c1ccc(Cl)s1,-15,-7,6,-1.0,6,-6
Cc1ccc2oc(=O)c3cc(C(=O)NCCCN4CCCC(C)C4)sc3c2c1 (centres undefined),-15,-23,-32,-0.3,6,-1
Cc1noc(/C=C/c2ccco2)c1S(=O)(=O)N1CCC(C(=O)N2CCc3ccccc3C2)CC1,4,-13,-14,2.7,8,-9

# Taken from above.
# TRPV1 PAM, `COC(=O)c1ccc(NC(C(=O)OC)C(C)C)c([N+](=O)[O-])c1` (centres undefined) : -16
# TRPML1 agonist, `CCOC(=O)COc1ccccc1-c1ccno1` : -0.9
# CtBP-E1A blk, `CC(C)[C@H](NC(=O)c1ccccc1)C(=O)O` : 1

# Next records:
SMILES,CtBP-E1A blk,TRPML1 blocker,D2 potentiator,TRPML1 agonist,TRPV1 PAM,Six1-Eya2 blk
O=[N+]([O-])c1cc(S(=O)(=O)N2CCOCC2)ccc1N1CCNCC1,3,-4,0,0.6,-6,4
Cc1ccc(C(O)c2ncc(-c3ccccc3Cl)[nH]2)cc1F (centres undefined),-14,.,-5,-1.0,.,-7
COc1cccc(NC(=O)CN2C(=O)COc3ccc(S(=O)(=O)N4CCC(C)CC4)cc32)c1,.,-4,-6,0.5,-21,-6
CCOC(=O)C(=O)Nc1ccccc1C(=O)OCC,0,35,-21,2.0,-7,4
Cc1cc2c(c(=O)o1)C(c1ccc([N+](=O)[O-])o1)C(C#N)=C(N)O2 (centres undefined),4,-5,-1,2.8,12,-11
Cc1ccc(NS(=O)(=O)c2cccc(C(=O)O)c2)c(C)c1,6,2,1,0.1,7,1
O=C(NCCNC(=O)c1ccc(Cl)cc1Cl)c1ccccn1,4,-9,-3,0.2,1,-8
COc1ccc(NC(=O)COCC(=O)Nc2ccc(C)cc2)cc1,.,2,-31,0.5,0,6
CC[C@]1(C(=O)OC)[C@H]2C(=O)N(C)C(=O)[C@H]2[C@H]2CN=C(SC)N21,8,-1,.,-0.4,.,7
CNC(=O)CC1C(=O)N(c2ccc(OC)cc2)C(=S)N1NC(=O)c1cccc(F)c1 (centres undefined),-5,32,-7,0.6,-5,1
Cc1ccc(NC(=O)c2sc3nc4c(c(-c5ccco5)c3c2N)CCC4)cc1,0,-4,8,-0.4,-1,9
CCOC(=O)NC(Nc1ccc(C)cn1)(C(F)(F)F)C(F)(F)F,5,36,6,-0.2,6,2
C(=C\c1nnc(-c2cccs2)o1)/c1ccccc1,26,1,0,-0.2,-21,22
CCOc1ccc(NS(=O)(=O)c2ccc3[nH]cc(C(=O)NCCOC)c(=O)c3c2)cc1,-5,-8&-7,6,0.1&1.2,5,-15
COC(CNC(=O)C1CC(=O)N(CCc2ccccc2)C1)OC (centres undefined),4,9,-24,-0.4,0,3
CC(C)Cc1nc(N2CCOCC2)c(C#N)c2c1COC(C)(C)C2,0,12,-12,-0.1,-21,-5
C=CCN(Cc1nc(-c2ccc(OC)cc2)no1)C(=O)c1ccc2c(c1)OCO2,0,-1,-11,0.3,-7,-11
Cc1c(Cl)cccc1NC(=O)CCC(=O)N/N=C/c1ccc[nH]1,-7,-20,-7,1.3,-13,-2
COC(=O)c1ccc(NC(=O)CCN2CCOCC2)cc1,-2,-10,-5,-0.1,12,4
CCN1CCCC1CNC(=O)Cn1cc(C)c(=O)[nH]c1=O (centres undefined),-24,-15,-1,0.2,.,-1

# In the list so far, these have a cyano group:
SMILES,CtBP-E1A blk,TRPML1 blocker,D2 potentiator,TRPML1 agonist,TRPV1 PAM,Six1-Eya2 blk
Cc1ccc(NC(=O)CSc2nnc(COc3ccc(C#N)cc3)n2-c2ccccc2)cc1C,-2,26,-16,3.1,-2,2
Cc1cc(C)c(C#N)c(SCC2COc3ccccc3O2)n1 (centres undefined),35,-2,-8,0.1,7,34
Cc1cc2c(c(=O)o1)C(c1ccc([N+](=O)[O-])o1)C(C#N)=C(N)O2 (centres undefined),4,-5,-1,2.8,12,-11
CC(C)Cc1nc(N2CCOCC2)c(C#N)c2c1COC(C)(C)C2,0,12,-12,-0.1,-21,-5

# (continued)
SMILES,CtBP-E1A blk,TRPML1 blocker,D2 potentiator,TRPML1 agonist,TRPV1 PAM,Six1-Eya2 blk
O=C(COC(=O)C1=Cc2ccccc2OC1)NCc1ccco1,.,4,-41,4.2,6,-5
CC(C)Cn1c(SC(C)C(=O)Nc2ccc(N3CCOCC3)cc2)nc2ccccc21 (centres undefined),.,-4,0,1.1,3,-5
O=C(Nc1ccc(Oc2ncnc3cc(Cl)ccc23)nc1)c1ccc(F)cc1,6,-6,-8,0.0,.,-22
CCN1CCCC1CNC(=O)Cn1cnc2sc(C)c(S(=O)(=O)N3CCC(C)CC3)c2c1=O (centres undefined),-2,-21,-8,0.5,-35,3
COc1cc(Cl)c(CN2CCCC(CO)(Cc3cccc(Cl)c3)C2)cc1OC (centres undefined),-2,-4,-1,1.6,-9,-11
CN1CCCC1(C)C(=O)NCc1ccc(F)cc1Cl (centres undefined),3,.,-2,-0.8,.,0
O=C(c1ccc(F)cc1)c1c[nH]c(C(=O)NCc2ccco2)c1,5,4,-3,-0.8,-21,-9
Cn1cc(/C(Cc2ccccc2)=N\O)c2ccccc21,-1,5,12,2.2,20,-1
CN(CC(=O)Nc1ccc(Cl)cc1)C(=O)CCc1c[nH]c2ccccc12,15,10,-11,-0.5,-27,1
O=C1CN(C(=O)/C=C/c2ccco2)c2ccccc2N1,-12,17,-11,-0.2,2,-1
O=C(CCC(=O)Nc1nnc(C2CCCCC2)s1)NCc1cccs1,3,17,-4,-1.3,?,7
COc1ccc(S(=O)(=O)N2CCCCCC2)cc1NC(=O)c1ccccc1S(C)(=O)=O,7,-15,8,0.5,21,-11
O=C(Cn1cncn1)N/N=C/c1ccccc1O,-94*,18,-2,0.3,-25,-85*
COC(=O)c1sc(NC(=O)c2ccoc2C)nc1C,0,-7,-2,-1.0,7,2
Cc1ccc(CS(=O)(=O)CCC(=O)NCCN2CCCC2)cc1,2,-9,-26,0.7,-19,2
O=C(NCCc1ccc(Cl)cc1)C(=O)Nc1cc2c3c(c1)CC(=O)N3CCC2,5,16,15,-0.2,21,-5
O=C1N/C(=N\c2ccccn2)SC1Cc1ccccc1Cl (centres undefined),.,-1,-21,0.2,-12,-2
N#Cc1cc2cc3c(cc2nc1NCCNC(=S)NCCCN1CCOCC1)OCO3,?,3,-12,0.4,-2,?
CC(=O)N1N=C(c2ccc([N+](=O)[O-])cc2)CC1c1ccccc1Cl (centres undefined),-24,-6,-11,-0.8,13,-23
O=C(OCC(=O)N1CCCC1)c1cc([N+](=O)[O-])ccc1Cl,7,3,6,-0.4,-1,2
Cn1ncc2c(c(SCc3ccc(Cl)cc3Cl)nn2C)c1=O,-15,4,-4,0.2,17,-7
COc1cc2sc(-c3ccc(S(C)(=O)=O)cc3)c(C(=O)NCc3ccc(C)o3)c2cc1OC,5,0,14,0.7,.,5
O=C(COc1ccc2ccc(=O)oc2c1)N1CCN(c2ccccc2)CC1,-3,15,-6,-0.1,6,-13
CN1CCc2c(sc3nc(SCC(N)=O)n(-c4ccc(Cl)cc4)c(=O)c23)C1,.,3,-8,-0.2,-6,-5
CC(C)(C)c1ccc(C(=O)N2CCNC(=O)C2CC(=O)Nc2ccc(F)cc2)cc1 (centres undefined),-21,-1,-22,1.9,2,17
CSc1nc(-c2ccco2)nn1C(=O)c1cccs1,11,-1,-6,0.5,-7,-7
Cc1cc(O)c(C(=O)/C=C/c2ccc(Cl)cc2)c(=O)o1,7,-1,-5,-0.3,-4,-1
Cc1cc2nc(-c3cccc(Br)c3)c(Cc3ccsc3)n2c(C)c1Br,-15,.,.,0.2,.,5
Cn1cc([N+](=O)[O-])c(C(=O)Nc2ccc3c(c2)OCCO3)n1,15,-4,-9,-0.5,9,3
CCN(C(=O)COc1ccc(C)cc1OC)c1cccc2ccccc12,-3,6,-9,3.4,.,-2
CC(C)Sc1nnc(CNC(=O)C23CC4CC(CC(C4)C2)C3)n1C1CCCCC1,0,11,-16,-0.3,-4,3
Cc1ccc(Oc2nc3c(c(=O)n(Cc4ccccc4F)c(=O)n3C)n2C)cc1,-3,-1,-3,-0.4,-15,-2
CNC(=O)COC(=O)/C=C/c1nc2ccccc2s1,-16,-1,-4,-0.2,-24,5
CCOC(=O)C1CCN(c2nc3ccccc3nc2C(C#N)C(=O)OC(C)COC)CC1 (centres undefined),0,1,-6,0.1,-9,14
CCCCN(C)CCNC(=O)Cn1ncc2c(=O)oc3ccc(C)cc3c21,-10,-6,-7,-0.5,5,-16
CCCOc1ccc(-c2nnn(CC(=O)N3CCC(C)CC3)n2)cc1,10,-8,4,0.8,1,2
CCN1C(=O)C(CC(=O)Nc2ccc(OC)cc2)N(Cc2ccco2)C1=S (centres undefined),7,-17,-4,0.9,7,0
Cc1ccc(C)c(/C=N/Nc2ccccn2)c1,0,1,-24,-0.3,-3,-3

# Of the compounds above, these contain a COOH group:
SMILES,CtBP-E1A blk,TRPML1 blocker,D2 potentiator,TRPML1 agonist,TRPV1 PAM,Six1-Eya2 blk
O=C(O)C(c1ccccc1)N1CCCCC1 (centres undefined),5,?,-1,-0.3,-1,-1
CC(C)[C@H](NC(=O)c1ccccc1)C(=O)O,1,-29,-3,0.4,-7,15
Cc1ccc(NS(=O)(=O)c2cccc(C(=O)O)c2)c(C)c1,6,2,1,0.1,7,1
